Bioassay records (PubChem)
RN4220 kill: S. aureus RN4220 growth inhibition; OD600, 16 h; inhibition, % (concentration not given with the values); actives 0.33% (n = 330,000);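 active = z-score of -3 or lower and OD600 up to 0.18 on both plates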;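 note: plate controls were untreated cells for no effect and reference antibiotic for full effect; stock transfer was 100 nL into about 80 µL; one replicate is shown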
Bead autofluor: compound fluorescence in toxin protease inhibitor counterscreen | compound autofluorescence counterscreen, microsphere flow cytometry; active compounds read high | fluorescence intensity (test concentration not listed) | actives 3.1% (n = 360,000) | AID 624483;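 active = at least 3 SD above the mean of all compounds, about 16000 in these data; inconclusive = too few beads counted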;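 note: 100 nL of 1 mM stock went into each well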
PrP UTR inh: suppresses PrP 5' UTR mRNA reporter expression; cell-based PrP 5' UTR mRNA reporter, plate reader; actives 0.35% (n = 340,000); inhibition, % (test concentration not listed); AID 488862;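 active = every replicate at 50% or more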;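 note: 0 = median of the neutral control wells; tested in H4 reporter cells; numbers are from one replicate; inactives centre near -14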
ugtP null kill: kills S. aureus RN4220 lacking UgtP. S. aureus RN4220 ugtP deletion, OD600 growth, 16 h; some inactives read as strong as hits. growth inhibition, % (concentration not given with the values). actives 0.54% (n = 330,000). AID 1259309;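 active = z-score under -3 and OD600 up to 0.15 on both plates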;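 note: plate controls were untreated wells for no effect and antibiotic for full effect; wells of about 80 µL received 100 nL stock; the first replicate is given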
Mtb hypoxia rep: reduces hypoxia-regulated biosensor signal in M. tuberculosis | M. tuberculosis hypoxia-regulated fluorescent reporter, fluorescence | fluorescence inhibition, % (concentration not given with the values) | actives 0.1% (n = 300,000);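 active = 35 to 45% if threefold the growth effect, above 45% if 1.5-fold the growth effect; inactive = the rest, general growth blockers included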;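 note: wells of about 50 µL received 100 nL stock; 0% = vehicle wells and 100% = reference inhibitor wells; whole bacteria with a GFP reporter of the hypoxia response; strong numbers were not always called active; many hits fall short of the cut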
BJeLR viability: kills HRASV12-expressing BJeLR cells. BJeLR (HRASV12) viability, CellTiter-Glo ATP luminescence, 48 h; reference of the scale not given here. inhibition, % (concentration not given with the values). actives 0.17% (n = 300,000);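 active = replicate mean above 50%; inconclusive = above 50% but judged a plate artefact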;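 note: 50 nL library stock added to about 25 µL; numbers are from one replicate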
Mtb hypoxia rep growth: recorded beside Mtb hypoxia rep, whose call it bears; growth inhibition, %; measured here: M. tuberculosis growth (absorbance);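 0% = vehicle and 100% = reference antibiotic; read after six days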
* hit, by the source's call; u = inconclusive; x = not tested or not shown.

Every second line gives: RN4220 kill	Bead autofluor	PrP UTR inh	ugtP null kill	Mtb hypoxia rep	Mtb hypoxia rep growth	BJeLR viability
> Cc1ccccc1NC1=NC(C)(C)N=C(N)N1
→ -2.5	4666	-16	-1	x	x	3
> O=C1CCCC2=C1C(c1ccc(O)c(O)c1)Nc1ccc3ncccc3c12 (stereo not drawn)
→ 8.2	5314	-69	24	1	2	2
> O=C(/C=C/c1ccccc1)N1CCC(N2CCC(C(=O)N3CCOCC3)CC2)CC1
→ 6.0	4717	-10	9	7	0	-10
> O=[N+]([O-])c1cc(S(=O)(=O)N2CCCC2)ccc1N/N=C/c1ccncc1
→ x	2628	-1	x	x	x	-10
> CCOc1ccc(CCNC(=O)COC(=O)COc2ccc(C#N)cc2)cc1OCC
→ 0.8	x	10	0	0	-3	x
> Cc1ccc(S(=O)(=O)N(c2cccc(C)c2)C2CCS(=O)(=O)C2)cc1 (stereo not drawn)
→ 5.0	21188*	-13	-5	4	6	-4
> COc1ccc2nc(C)cc(NN=Cc3ccc(F)cc3)c2c1
→ 7.7	x	x	-15	78*	50*	x
> CCC(=O)NCCCc1nc(-c2ccccc2)no1
→ 2.0	3886	-6	-10	5	4	0
> CC(C)N(C(=O)[C@H]1C[C@H](CC(=O)NCCC2=CCCCC2)C(=O)N2CCc3c([nH]c4cc(CCC(=O)N(C)C)ccc34)[C@]12C)C(C)C
→ 0.2	3282	-23	0	0	0	x
> O=C(Nc1nnc(-c2ccco2)o1)c1cccc(N2C(=O)CCC2=O)c1
→ 1.4	5729	-12	-2	15	4	4
> COc1cccc(CN2CC(C(=O)NCCOc3ccccc3F)CCC2=O)c1 (stereo not drawn)
→ -0.4	5371	-3	3	-21	-6	-1
> O=C1C2CC=C(Cl)CC2C(=O)N1CCC[n+]1cccc2ccccc21 (stereo not drawn)
→ 4.5	2562	-4	-2	6	-5	2
> [O-][N+]12CCCCC1CCCC2CO (stereo not drawn)
→ 1.8	4284	-24	1	7	-1	-3
> CC(=O)c1cccc(NC(=O)COC(=O)C2CCCN2C(=O)c2cccs2)c1 (stereo not drawn)
→ -3.6	2923	16	-9	3	5	x
> COc1ccc(N2CCN(C(=O)CCS(=O)(=O)c3ccc4c(c3)CCN4C(=O)C3CC3)CC2)cc1
→ 0.4	4880	-6	2	-5	-5	5
> CSc1ccc(COC(=O)CCS(=O)(=O)c2ccc(C)cc2)cc1
→ 1.1	u	-15	10	-6	0	-6
> CS(=O)(=O)N(Cc1ccccc1)c1ccccn1
→ 3.1	11907	-16	2	2	6	4
> Cc1ccc2nc(/N=C(\N)NC(=O)N3c4ccccc4Sc4ccccc43)nc(C)c2c1
→ x	2584	-10	x	x	x	2
> COC(=O)C1=C(C(=O)OC)C2N(Cc3ccccc3)c3ccccc3[C@@]23CC(C(=O)OC)N(C(=O)NC(C)(C)C)C3=N1 (stereo partly drawn)
→ 2.8	x	x	-1	6	6	x
> CC(=O)Nc1ccc(S(=O)(=O)N2CCN(CC(O)COc3ccc4ccccc4c3)CC2)cc1 (stereo not drawn)
→ -4.5	23688*	-6	-8	-15	1	-2
> COc1cccc(-c2nnn(CC(=O)N3CCCCC3)n2)c1
→ 3.9	3724	-44	7	12	8	-2
> Cc1ccc(/C=N/NC(=O)c2ccncc2)cc1
→ x	3688	-24	x	x	x	-7
> O=C(N/N=C/c1ccc(Br)s1)c1ccccc1[N+](=O)[O-]
→ x	10055	-10	x	x	x	-3
> Nc1ccccc1C(=O)N1CCCC1
→ 7.0	3758	-25	14	-3	-2	4
> O=C(CN(Cc1ccc(Br)cc1)S(=O)(=O)c1ccccc1)NCC1CCCO1 (stereo not drawn)
→ 3.0	4568	-2	8	6	-1	3
> COc1ccc(C(=O)C(C)[n+]2ccc(C)c3ccccc32)cc1[N+](=O)[O-] (stereo not drawn)
→ 1.1	4692	-17	0	12	3	10
> CCCCCCCC(=O)N1CCN(c2cc3c(cc2F)c(=O)c(C(=O)O)cn3CC)CC1
→ 95*	3239	-15	99*	-2	6	-1
> C/C(=N/NC(=O)CNC(=O)c1cccs1)c1ccc(Cl)cc1
→ x	4837	-10	x	x	x	1
> CCOc1ccc(N2CC(NC(=O)c3ccc4ccccc4c3)CC2=O)cc1 (stereo not drawn)
→ 0.6	u	-1	7	4	-13	3
> COc1ccc(S(=O)(=O)N2CCCCCC2)cc1C(=O)N(C)CC(=O)Nc1ccc(F)cc1
→ 5.6	4132	-12	16	2	-3	3
> Cc1ccc(NC(=O)CSC2=NN3CCCC(=O)N=C3S2)cc1Cl
→ 3.2	3409	-24	-2	-7	-2	1
> CN(CCOc1ccccc1)CC(=O)Nc1ccc(Br)cc1F
→ 4.0	3464	-22	4	-2	-4	3
> CN=c1sc(C(=O)Nc2ccccc2)c(C)n1C
→ 3.6	4300	-43	8	-1	2	5
> CCCN(C(=O)C1CCN(S(=O)(=O)c2ccc(OC)c(OC)c2)CC1)C1CCS(=O)(=O)C1 (stereo not drawn)
→ 4.4	5993	-7	9	2	1	2
> O=C(CN1c2cccc3cccc(c23)S1(=O)=O)Nc1ccccc1F
→ -2.7	6432	-3	5	7	3	-1
> CCOc1ccc(OCC(=O)NCc2n[nH]c(=O)c3ccccc23)cc1
→ 1.3	6179	-3	2	-1	11	3
> Cc1cc(Cl)c(S(=O)(=O)NCc2ccccc2)cc1OCC(N)=O
→ -2.3	u	-29	1	13	12	-5
> O=C1NC(=O)N(CC2CCCO2)C(=O)/C1=C/c1cccs1 (stereo not drawn)
→ -0.2	4662	-21	2	1	-1	-9
> COc1nc(SC)nc(Cl)c1Cc1ccc(OC(C)C)cc1
→ -7.3	2419	-11	92*	6	4	2
> O=C(CN1C(=O)c2ccccc2S1(=O)=O)N1CCc2ccccc21
→ 2.5	4188	63*	6	3	-2	1
> Cc1cccc2cc(CN(CCCO)C(=O)Nc3cccc(Cl)c3)c(=O)[nH]c12
→ 13	2479	-11	9	10	0	-2
> CCOc1cc(C=NNc2ncc(F)c(N3CCOCC3)n2)ccc1Oc1nc(Cl)ncc1F
→ 6.4	x	x	5	-22	-1	x
> O=C(N/N=C/c1ccccc1O)/C(=C/c1ccccc1)CCO
→ x	3558	-19	x	x	x	-6
> O=C(NNc1nc2ccccc2s1)c1ccccc1F
→ 7.0	8012	-22	2	15	10	-7
> O=C(O)C1=C[C@H](c2cccs2)C[C@H](OCCCCO)O1
→ x	2943	-2	x	x	x	10
> CCc1ccc(OCc2cnc(Cl)s2)cc1
→ 2.6	4551	-27	16	2	2	-13
> CCOc1cc(/C=C2\CN(CC)C/C(=C\c3ccc(O)c(OCC)c3)C2=O)ccc1O
→ -2.1	3288	-13	-12	-9	5	57*
> CC/C=C/C(=O)N1CC2(CC(c3cccc(NC(=O)c4ccccc4)c3)=NO2)C[C@@H]1C(N)=O (stereo partly drawn)
→ x	3955	-14	x	x	x	5
> CC(C)NC(=O)CSCc1c(Cl)cccc1Cl
→ -1.6	3727	-10	2	20	11	1
> O=S1(=O)N[C@H](c2ccccc2)C[C@H](c2ccc(C(F)(F)F)cc2)O1
→ x	3017	-8	x	x	x	-1
> C=CCN1N=C(/C=C/c2ccc(OC)cc2)CCC1=O
→ 0.3	4174	x	20	-5	0	4
> O=C(COC(=O)c1cc(=O)[nH]c2ccccc12)NCc1cccc(Cl)c1
→ 1.8	3936	-1	5	3	2	x
> COCCN(C(=O)c1ccccc1F)c1nnc(-c2ccc(OC)cc2)s1
→ 0.1	4459	-30	-7	-9	-4	-7
> O=C(CCc1nnc(C2CCCCC2)o1)NCCCOc1cccnc1
→ 5.1	2201	-26	-6	9	1	7
> CCc1cc(/C(Cc2ccccn2)=N\Nc2ccccc2)c(O)cc1O
→ x	4417	-5	x	x	x	11
> O=C(c1ccccc1-c1nc(-c2ccc(F)cc2)no1)N1CCCC1
→ -0.7	2641	-24	8	x	x	-1
> O=C(N/N=C/c1cccc([N+](=O)[O-])c1)c1cccc(Br)c1
→ x	3353	-17	x	x	x	-16
> O=C(Nc1ccccc1)c1c(O)[nH]c(=O)[nH]c1=O
→ 3.6	3858	-8	-10	3	5	-5
> COc1ccc(-c2ccnc(-c3ccc(O)cc3)n2)cc1
→ 17	3650	45	7	-3	5	19
> O=C(Cc1ncc(C(F)(F)F)cc1Cl)NNc1cccc(F)n1
→ 3.7	3833	-33	4	14	3	-5

(cont.)
Every second line gives: RN4220 kill	Bead autofluor	PrP UTR inh	ugtP null kill	Mtb hypoxia rep	Mtb hypoxia rep growth	BJeLR viability
> ON=C1CCCc2oc3c(c21)CCCC3
→ 4.8	x	x	5	8	11	x
> COCCCNC(=O)CCCn1c(=O)c2ccccc2n(Cc2cccc([N+](=O)[O-])c2)c1=O
→ 0.9	4867	-7	1	17	6	14
> Cc1cc(C)c(Nc2ncnc(N)n2)c(C)c1
→ 0.5	6133	-25	1	-2	-1	-4
> O=C(O)C1C2C=CC(O2)C1C(=O)NCCc1cccc(Cl)c1 (stereo not drawn)
→ 1.2	4343	-12	-1	4	-3	3
> COc1ccc(CC(=O)OCc2csc(CC(=O)Nc3ccc(C)cc3)n2)cc1
→ -1.8	3503	1	-6	7	2	x
> CC(=O)Nc1ccc(NC(=O)CCNS(=O)(=O)c2cccc3nsnc23)cc1
→ 0.3	5899	-15	4	9	9	-2
> CC(NCC(=O)NC(=O)NC1CCCC1)c1ccc(Cl)cc1Cl (stereo not drawn)
→ 4.3	5071	-10	-7	0	2	-15
> O=C(C1CC(=O)N(C2CCCC2)C1)N1CCN(c2ccccc2F)CC1 (stereo not drawn)
→ 2.8	5748	-9	4	12	11	-2
> CCOC(=O)C1=C(C)NC2=C(C(=O)C(C(=O)OC)C(C)C2)C1c1ccc(OC)c(O)c1 (stereo not drawn)
→ 4.3	23122*	-18	5	6	7	2
> COC(=O)C1=C(c2ccc(C(C)=O)cc2)CC2CCC1N2C (stereo not drawn)
→ 3.3	x	x	8	10	6	x
> CC(=O)Nc1ccc(S(=O)(=O)NC2(C(F)(F)F)C(=O)Nc3c2c(=O)[nH]c(=O)n3C)cc1 (stereo not drawn)
→ 0.2	10563	-7	4	7	7	11
> CC(=O)N(/N=C1\Sc2ccccc2C1=O)c1cccc(C)c1
→ x	3093	-91	x	x	x	9
> CCN(CC)C(=O)CCSc1nnc(-c2ccco2)o1
→ 4.5	4057	-14	-2	23	8	-1
> COC(=O)c1cc(-c2ccccc2)nc2nc(SC)[nH]c(=O)c12
→ 2.2	3495	-20	-7	1	-7	-8
> S=C(Nc1ccccn1)NC1CCCC1
→ 8.9	2827	-31	13	5	0	-3

3 successive entries from above, for reference:
Every second line gives: RN4220 kill	Bead autofluor	PrP UTR inh	ugtP null kill	Mtb hypoxia rep	Mtb hypoxia rep growth	BJeLR viability
> COc1ccc(CC(=O)OCc2csc(CC(=O)Nc3ccc(C)cc3)n2)cc1
→ -1.8	3503	1	-6	7	2	x
> CC(=O)Nc1ccc(NC(=O)CCNS(=O)(=O)c2cccc3nsnc23)cc1
→ 0.3	5899	-15	4	9	9	-2
> CC(NCC(=O)NC(=O)NC1CCCC1)c1ccc(Cl)cc1Cl (stereo not drawn)
→ 4.3	5071	-10	-7	0	2	-15

Hits appear at their usual frequency; overall some 4% were active at least once.
